Vaccinia_stage = blocks a specific stage of Vaccinia orthopoxvirus infection. Vaccinia-infected cells, mCherry/Venus stage reporter fluorescence; hits give low values; some inactives read as strong as hits. activity change (mCherry), % (test concentration not listed). actives 0.01% (n = 89,000). AID 1053133;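 active = mCherry past -33% and 40 or more points under the early reporter, replicates agreeing; inconclusive = past -33% without that gap or agreement; tested in A549 cells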;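 note: scaled between vehicle wells and reference inhibitor wells; 23 nL library stock went into each well; one replicate is shown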
Vaccinia_stage_Venus = recorded beside Vaccinia_stage, whose call it bears; activity change (Venus), %; measured here: Venus reporter, other viral stage;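 negative = less Venus signal; first of two replicates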
Starred values were filed as active, the others as inactive; ? = inconclusive; . = no result given; & = joins results of further samples. The list is partial, so the mix of outcomes need not match the whole.

SMILES Vaccinia_stage Vaccinia_stage_Venus
C/C=C/c1ccc([C@@H]2[C@H](CO)N(C(C)=O)[C@H]2CN(CC)C(=O)CN(C)C)cc1 8 7
CC(C)NC(=O)Nc1ccc2c(c1)C(=O)N([C@@H](C)CO)C[C@@H](C)[C@H](CN(C)Cc1ccc(Cl)c(Cl)c1)O2 ? .
COc1ccc2c3c(n(C)c2c1)[C@H](CO)N(Cc1ccc2c(c1)OCO2)CC31CCN(C)CC1 -20 -5
CC(C)C#Cc1ccc([C@H]2[C@H](C#N)N(C(=O)C3CCC3)[C@H]2CO)cc1 -4 -3
COc1ccc(CNC(=O)C[C@@H]2CC[C@H]3[C@@H](COc4ccc(NC(=O)C(C)C)cc4C(=O)N3C)O2)cc1 4 -2
C[C@@H]1CN([C@H](C)CO)S(=O)(=O)c2ccc(-c3cccc(C(=O)N(C)C)c3)cc2O[C@@H]1CN(C)Cc1ccc2c(c1)OCO2 -23 -17
C[C@@H]1CN([C@@H](C)CO)C(=O)c2cc(C#CC(C)(C)O)cnc2O[C@H]1CN(C)C(=O)CN(C)C 17 13
O=C(C1CCCCC1)N1CC[C@@H]2[C@@H](CO)Nc3ccc(Br)cc3[C@@H]21 -21 -22
CO[C@H]1CN(C)C(=O)c2cc(NS(=O)(=O)CC(F)(F)F)ccc2OC[C@@H](C)N(C(=O)c2ccc3c(c2)OCO3)C[C@@H]1C 13 9
O=C(N[C@H]1CC[C@@H](CCn2cc(Cc3ccccc3)nn2)O[C@H]1CO)c1cnccn1 6 -9
C[C@@H]1CN([C@H](C)CO)C(=O)c2cc(NS(=O)(=O)c3cn(C)cn3)ccc2O[C@@H]1CN(C)C(=O)Nc1cccc2ccccc12 39 39
C[C@H]1CN([C@@H](C)CO)C(=O)c2cc(-c3ccccc3)cnc2O[C@H]1CN(C)C(=O)Cc1cccnc1 23 14
C[C@H](CO)N1C[C@H](C)[C@@H](CN(C)Cc2ccc(C(=O)O)cc2)Oc2ccc(NS(=O)(=O)c3ccccc3)cc2CC1=O 9 4
COCC#Cc1ccc2c(c1)O[C@H](CN(C)Cc1ccncc1)[C@H](C)CN([C@@H](C)CO)S2(=O)=O -4 4
CN(C)CC(=O)N[C@H]1CC[C@@H](CCn2cc(C3CC3)nn2)O[C@@H]1CO 1 3
C[C@H]1CN([C@@H](C)CO)C(=O)c2cc(C#CC3(O)CCCC3)cnc2O[C@H]1CN(C)C(=O)Cc1ccccc1 17 21
C[C@H](CO)N1C[C@H](C)[C@H](CN(C)C(=O)NC2CCCCC2)Oc2ccc(NS(C)(=O)=O)cc2C1=O 20 13
C[C@H]1CN([C@@H](C)CO)C(=O)c2cc(/C=C/c3ccccc3)cnc2O[C@H]1CN(C)Cc1ccncc1 19 5
CCNC(=O)[C@H]1[C@H](CO)[C@H]2Cn3c(cccc3=O)[C@@H]1N2Cc1cccc(Cl)c1 11 13
O=C(NC1Cc2ccccc2C1)[C@H]1[C@H](CO)[C@H]2Cn3c(ccc(C4=CCCCC4)c3=O)[C@@H]1N2CC1CC1 -24 -20

In the list so far, these have an aryl methoxy group.
SMILES Vaccinia_stage Vaccinia_stage_Venus
COc1ccc2c3c(n(C)c2c1)[C@H](CO)N(Cc1ccc2c(c1)OCO2)CC31CCN(C)CC1 -20 -5
COc1ccc(CNC(=O)C[C@@H]2CC[C@H]3[C@@H](COc4ccc(NC(=O)C(C)C)cc4C(=O)N3C)O2)cc1 4 -2

Further compounds.
SMILES Vaccinia_stage Vaccinia_stage_Venus
C[C@@H]1CN([C@@H](C)CO)C(=O)Cc2cc(NC(=O)C3CCCCC3)ccc2O[C@H]1CN(C)S(=O)(=O)c1ccc(F)cc1 -12 -16
C[C@H](CO)N1C[C@H](C)[C@@H](CN(C)C(=O)Nc2ccc(F)cc2)Oc2c(NC(=O)c3cnccn3)cccc2C1=O 6 11
O=C(N[C@H]1CC[C@H](CCn2cc(C3CCCCC3)nn2)O[C@H]1CO)c1cccnc1 6 -5
C[C@H]1CN([C@@H](C)CO)C(=O)Cc2cc(NC(=O)Nc3ccccc3)ccc2O[C@@H]1CN(C)S(C)(=O)=O 10 6
C[C@@H]1CN([C@H](C)CO)C(=O)c2cccc(NC(=O)CCCCCC(=O)Nc3ccccc3N)c2O[C@H]1CN(C)C(=O)Nc1ccc(C(F)(F)F)cc1 -9 -15
COc1ccc2c3c(n(C)c2c1)[C@H](CO)N(C(=O)Nc1ccc(F)cc1)CC31CN(C(=O)CN2CCOCC2)C1 12 6
CC(=O)N(C)C[C@H]1Oc2cc(-c3ccc(C#N)cc3)ccc2S(=O)(=O)N([C@@H](C)CO)C[C@H]1C -1 -4
CCC(=O)N1[C@H](CO)[C@@H](c2ccccc2-c2cccc(C)c2)[C@@H]1C#N -28 -18
O=C(c1cccnc1)N1CCCCN2[C@H](CO)[C@@H](c3ccc(C#Cc4ccccn4)cc3)[C@H]2C1 15 5
CC(C)NC(=O)N(C)C[C@@H]1OCCCC[C@@H](C)Oc2ccc(N(C)C)cc2C(=O)N([C@@H](C)CO)C[C@H]1C 20 20
CO[C@H]1CN(C)C(=O)c2cc(NC(=O)Nc3ccccc3F)ccc2OC[C@@H](C)N(Cc2ccccc2C(=O)O)C[C@@H]1C 8 11
COc1ccc2c3c([nH]c2c1)[C@@H](CO)N(C(=O)Nc1ccc(F)cc1)CC31CN(S(=O)(=O)c2cn(C)cn2)C1 -14 -23
COc1cccc(NC(=O)Nc2ccc3c(c2)OC[C@@H](C)NC[C@@H](C)[C@H](OC)CN(C)C3=O)c1 -1 7
COCC(=O)N(C)C[C@H]1Oc2cc(C#C[C@@H](C)O)ccc2S(=O)(=O)N([C@H](C)CO)C[C@@H]1C 0 3
COc1ccc(NC(=O)N(C)C[C@@H]2Oc3ncc(C4=CCCC4)cc3C(=O)N([C@@H](C)CO)C[C@@H]2C)cc1 -6 -8
C[C@H](CO)N1C[C@H](C)[C@H](CN(C)C(=O)C2CCOCC2)Oc2cc(C3=CCCC3)ccc2S1(=O)=O 9 4
CN(C)C(=O)C[C@H]1C[C@H]2c3cc(NC(=O)NC4CCCCC4)ccc3O[C@H]2[C@H](CO)O1 7 3
CCNC(=O)C[C@H]1CC[C@@H]2[C@H](COC[C@H](O)CN2C(=O)Nc2c(C)noc2C)O1 27 9
Cc1noc(C)c1S(=O)(=O)N(C)C[C@@H]1OCCCC[C@H](C)Oc2ccc(NS(=O)(=O)c3ccc(Cl)cc3)cc2C(=O)N([C@@H](C)CO)C[C@H]1C -28 -26
O=C(C1=C[C@H](c2ccc3c(c2)OCO3)C[C@H](OCc2ccc(CO)cc2)O1)N1CCN(Cc2ccc3c(c2)OCO3)CC1 -17&-27 -15&-26

In the list so far, these have a COOH group:
SMILES Vaccinia_stage Vaccinia_stage_Venus
C[C@H](CO)N1C[C@H](C)[C@@H](CN(C)Cc2ccc(C(=O)O)cc2)Oc2ccc(NS(=O)(=O)c3ccccc3)cc2CC1=O 9 4
CO[C@H]1CN(C)C(=O)c2cc(NC(=O)Nc3ccccc3F)ccc2OC[C@@H](C)N(Cc2ccccc2C(=O)O)C[C@@H]1C 8 11

Additional compounds follow:
SMILES Vaccinia_stage Vaccinia_stage_Venus
CC(C)NC(=O)N(C)C[C@H]1Oc2ccc(NC(=O)CCC(F)(F)F)cc2CC(=O)N([C@@H](C)CO)C[C@H]1C 20 3
CCC(=O)N1C[C@@H](C)[C@H](OC)CN(C)C(=O)c2ccc(NC(=O)CC(F)(F)F)cc2OC[C@H]1C 12 18
C/C=C/c1ccc([C@H]2[C@@H](CO)N3CCCCN(S(=O)(=O)c4cccc(C)c4)C[C@H]23)cc1 -24 -22
Cc1noc(C)c1NC(=O)Nc1ccc2c(c1)C(=O)N([C@H](C)CO)C[C@H](C)[C@H](CN(C)S(C)(=O)=O)OCCCC[C@@H](C)O2 0 3
C[C@@H]1CN([C@H](C)CO)C(=O)Cc2cc(NC(=O)Nc3ccc(C(F)(F)F)cc3)ccc2O[C@@H]1CN(C)S(C)(=O)=O -16 -11
C[C@@H]1CN([C@@H](C)CO)C(=O)c2cc(NS(C)(=O)=O)ccc2O[C@H]1CN(C)Cc1ccc(C(F)(F)F)cc1 -11 -14
C[C@@H]1CN([C@H](C)CO)C(=O)c2cc(NC(=O)Cn3cnnn3)ccc2O[C@@H]1CN(C)S(=O)(=O)c1cccs1 18 4
COc1ccc(S(=O)(=O)N(C)C[C@@H]2Oc3ccc(NC(=O)NC4CCCCC4)cc3C(=O)N([C@H](C)CO)C[C@@H]2C)cc1 -29 -21
C[C@@H]1CN([C@@H](C)CO)C(=O)c2cc(NC(=O)Cc3ccccc3)ccc2O[C@@H]1CN(C)Cc1ccc(C(F)(F)F)cc1 -17 -16
Cc1ccc(-c2ccc([C@@H]3[C@@H](CO)N4C(=O)CN(C(=O)c5cccnc5)C[C@H]34)cc2)cc1 -17 -23
Cc1cccc(S(=O)(=O)N(C)C[C@H]2OCc3cn(nn3)CCCC(=O)N([C@H](C)CO)C[C@H]2C)c1 5 -4
COc1ccc2c3c(n(C)c2c1)[C@H](CO)N(CC1CC1)CC31CCN(C(=O)Nc2ccccc2)CC1 1 4
C[C@@H]1CN([C@@H](C)CO)C(=O)c2cccc(NC(=O)Nc3ccc4c(c3)OCO4)c2O[C@@H]1CN(C)Cc1ccc2c(c1)OCO2 12 -2
O=S(=O)(c1cccs1)N1CCCCN2[C@@H](CO)[C@H](c3ccc(Br)cc3)[C@@H]2C1 18 -6
CO[C@@H]1CN(C)C(=O)c2cc(NC(=O)c3ccc(F)cc3)ccc2OC[C@H](C)N(C(=O)CN(C)C)C[C@H]1C 8 2
CO[C@H](CN(C)C(=O)c1cnccn1)[C@@H](C)CN([C@@H](C)CO)S(=O)(=O)c1ccc(C)cc1 15 12
O=C(Nc1cccc(F)c1)N1C[C@@H]2[C@H](c3ccccc31)[C@@H](CO)N2C(=O)C1CCOCC1 12 8
C[C@@H]1CN([C@H](C)CO)C(=O)c2cccc(NS(=O)(=O)c3cn(C)cn3)c2O[C@H]1CN(C)Cc1ccc(-c2ccccc2)cc1 5 7
C[C@H]1CN([C@@H](C)CO)C(=O)c2c(c3ccccc3n2C)-c2ccccc2CO[C@H]1CN(C)C(=O)Oc1ccccc1 ? .
CCc1csc(N2[C@H](C#N)[C@@H](c3ccc(-c4ccc(F)cc4)cc3)[C@@H]2CO)n1 -30 -16
C[C@@H]1CN([C@@H](C)CO)C(=O)c2cc(NC(=O)C3CC3)ccc2O[C@@H]1CN(C)Cc1ccc(C(=O)O)cc1 7 -2
C[C@@H]1CN([C@@H](C)CO)C(=O)c2cc(C#Cc3cccc(F)c3)cnc2O[C@H]1CN(C)CC1CCOCC1 -32 -17
CCCC#Cc1cnc2c(c1)C(=O)N([C@@H](C)CO)C[C@H](C)[C@@H](CN(C)Cc1ccccc1)O2 2 -10
C[C@H](CO)N1C[C@H](C)[C@H](CN(C)C(=O)Nc2cccc3ccccc23)Oc2ccc(NC(=O)Nc3ccc4c(c3)OCO4)cc2CC1=O 13 17
Cc1cccc(-c2ccc([C@@H]3[C@@H](CO)N4C(=O)CN(S(=O)(=O)c5cccc(F)c5)C[C@H]34)cc2)c1 2 -24
O=C(C[C@H]1CC[C@@H](NC(=O)C2CCC2)[C@H](CO)O1)NCC1CC1 11 8
COCC(=O)N1C[C@H]2[C@@H](c3ccccc31)[C@@H](CO)N2C(=O)Nc1ccccc1F 6 8
CN(C)C(=O)[C@H]1[C@H](CO)[C@H]2Cn3c(ccc(-c4cccc(F)c4)c3=O)[C@H]2N1C(=O)c1ccccn1 -11 -8
COc1ccc2c3c([nH]c2c1)[C@@H](CO)N(CC1CCCC1)CC31CN(C)C1 11 6
Cc1noc(C)c1NC(=O)Nc1ccc2c(c1)CC(=O)N([C@H](C)CO)C[C@@H](C)[C@@H](CN(C)C(=O)Nc1cccc3ccccc13)O2 4 11
CN1C(=O)c2cc(NC(=O)c3cnccn3)ccc2OC[C@H]2O[C@@H](CC(=O)NCC3CCCCC3)CC[C@H]21 1 -4
Cc1ccc(-c2ccc3c(c2)O[C@H](CN(C)C(=O)C2CCC2)[C@@H](C)CN([C@@H](C)CO)S3(=O)=O)cc1 ? .
CN(C)C(=O)C[C@H]1CC[C@H](NC(=O)NC2CCCC2)[C@@H](CO)O1 -4 6
C[C@@H]1CN([C@H](C)CO)C(=O)c2cccc(NC(=O)Nc3ccccc3)c2O[C@@H]1CN(C)S(=O)(=O)c1ccc(Cl)cc1 -27 -16
COCC#Cc1cnc2c(c1)C(=O)N([C@@H](C)CO)C[C@H](C)[C@H](CN(C)C)O2 23 20
COc1ccccc1-c1cnc2c(c1)C(=O)N([C@@H](C)CO)C[C@H](C)[C@H](CN(C)Cc1cncnc1)O2 27 15
C[C@@H]1CN([C@H](C)CO)C(=O)c2cc(NC(=O)Nc3ccc(F)cc3)ccc2O[C@@H]1CN(C)C(=O)Nc1ccc2c(c1)OCO2 8 6
COCC(=O)Nc1ccc2c(c1)C(=O)N(C)[C@@H]1CC[C@@H](CC(=O)NCC(F)(F)F)O[C@H]1CO2 15 3
C[C@@H]1CN([C@H](C)CO)C(=O)c2cccc(NC(=O)Nc3ccccc3)c2O[C@@H]1CN(C)Cc1ccc(C(=O)O)cc1 17 14
O=C(NCC1CC1)[C@H]1[C@H](CO)[C@H]2Cn3c(cccc3=O)[C@@H]1N2C(=O)c1ccccc1 -8 -9
C[C@@H]1CN([C@H](C)CO)C(=O)c2ccccc2-c2ccccc2CO[C@@H]1CN(C)Cc1ccc(C(F)(F)F)cc1 ? .
Cc1ccc(S(=O)(=O)N[C@H]2CC[C@H](CC(=O)N3CCN(c4ccccc4)CC3)O[C@H]2CO)cc1 5 8

Compounds above that have bromine, in the order listed:
SMILES Vaccinia_stage Vaccinia_stage_Venus
O=C(C1CCCCC1)N1CC[C@@H]2[C@@H](CO)Nc3ccc(Br)cc3[C@@H]21 -21 -22
O=S(=O)(c1cccs1)N1CCCCN2[C@@H](CO)[C@H](c3ccc(Br)cc3)[C@@H]2C1 18 -6
